# Sfp inh: inhibitors of Bacillus subtilis Sfp phosphopantetheinyl transferase; Biochemical Sfp PPTase activity, qHTS; Potency, µM, inactives show max response, negative = inhibition, most hits filed as inhibitors; 310,000 tested, 3.5% active; active = well fitted inhibition curve with a large enough effect; inconclusive = small, poorly fitted or top-dose-only effect, or another doubt; inactive = no such curve, though single readings can be large or run the other way;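 also: the enzyme is Sfp with the accession as filed and its product quenches rhodamine fluorescence; potency is read from the fitted curve at half-maximal effect; 0% = enzyme reaction without inhibitor and -100% = no enzyme wells; top concentration of the series not given in the record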
#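 Compounds were incubated with enzyme (final 15 nM) for 15 min at room temperature before substrate addition started the reaction. Fluorescence at 525 nm excitation, 598 nm emission was recorded immediately and after 30 minutes.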
# Menin-MLL FL inh: inhibitors of human menin-MLL interaction, wild-type MLL peptide; 290,000 tested, under 10 active; AID 1766; FP activity change, % at 61.4 µM; Fluorescence polarization, fluorescein-MLL peptide displacement from menin; inconclusive = falling polarisation curve, or a change in total fluorescence; inactive = total fluorescence flat and polarisation flat or rising; no compound was filed as active; the % refers to the polarisation; negative = inhibition;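 also: % of control where 0% means no effect; inhibitors lower the polarisation; unlabelled MLL peptide was the positive control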
# ClpP mod: qHTS Assay for Activators of ClpP | AID 651965, 2013 | 340,000 tested, 1.9% active | purified B. subtilis ClpP, FRET peptide cleavage, 20 min | Potency, µM (doses to about 57.5 µM), for the others: at the highest dose activity change, negative = active; active = well fitted falling curve with a large enough effect; inconclusive = small, poorly fitted or top-dose-only effect; inactive = no such curve, though single readings can be large or run the other way; also: potency is read from the fitted curve at half-maximal effect; the source files actives as falling curves though it sought activators and does not explain the sign; nearly all actives have a fitted effect of over 65% in size; many hits overshoot -100%
# Target sequence (P80244 whole entry, looked up): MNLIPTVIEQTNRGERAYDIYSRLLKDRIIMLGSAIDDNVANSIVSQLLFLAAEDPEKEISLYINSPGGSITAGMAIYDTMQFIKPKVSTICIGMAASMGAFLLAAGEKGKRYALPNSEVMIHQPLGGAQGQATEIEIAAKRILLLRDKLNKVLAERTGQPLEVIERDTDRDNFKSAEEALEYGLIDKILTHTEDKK
#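 ClpP 10 microg/mL final, pH 8 Tris/KCl buffer with BSA, glycerol, Tween-20; compound pinned in; FRET-FV substrate; RT 20 min; Ex320/Em430; ΔFRET vs ADEP 5.8 microM, DMSO, no enzyme.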
# gsp antagonist: gsp mutant antagonism; gsp-mutant cells, cAMP HTRF, 30 min; control for the full effect not named in the record; Potency, µM (highest dose often 76.9 µM), inactives show top-dose activity change, negative = inhibition, actives largely listed as inhibitors; 340,000 tested, 0.4% active; active = falling curve of any shape with a large fitted effect; inconclusive = falling curve, mostly with a smaller effect; inactive = flat or rising curve; cell line not stated here;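 also: intracellular cAMP measured with PDE inhibitor Ro 20-1724 present during compound exposure; potency is read from the fitted curve at half-maximal effect; % is scaled to controls: 0 for no effect and ±100 for the full control effect; nearly all actives have a fitted effect of over 65% in size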
#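 HTRF cAMP read-out (cAMP-d2 plus anti-cAMP antibody-K in lysis buffer, 30 min RT). Before lysis, cells are exposed to compounds with […] for 30 min at 37C in DPBS containing Ca/Mg, BSA and Tween 20.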
# D2 ag: agonists of human D2 dopamine receptor (beta-arrestin); P14416; DiscoveRx PathHunter D2 beta-arrestin, luminescence, 90 min; 100% = 57 uM dopamine signal; activation, % (test concentration not listed); 360,000 tested, 0.084% active; AID 624465; in the data active = activation above about 40%; inconclusive = about 15% to 40%; inactive = below about 15%; also: compound concentration not given in the record; the text of the record calls up to 30% inactive
# Target sequence (P14416 whole entry, looked up): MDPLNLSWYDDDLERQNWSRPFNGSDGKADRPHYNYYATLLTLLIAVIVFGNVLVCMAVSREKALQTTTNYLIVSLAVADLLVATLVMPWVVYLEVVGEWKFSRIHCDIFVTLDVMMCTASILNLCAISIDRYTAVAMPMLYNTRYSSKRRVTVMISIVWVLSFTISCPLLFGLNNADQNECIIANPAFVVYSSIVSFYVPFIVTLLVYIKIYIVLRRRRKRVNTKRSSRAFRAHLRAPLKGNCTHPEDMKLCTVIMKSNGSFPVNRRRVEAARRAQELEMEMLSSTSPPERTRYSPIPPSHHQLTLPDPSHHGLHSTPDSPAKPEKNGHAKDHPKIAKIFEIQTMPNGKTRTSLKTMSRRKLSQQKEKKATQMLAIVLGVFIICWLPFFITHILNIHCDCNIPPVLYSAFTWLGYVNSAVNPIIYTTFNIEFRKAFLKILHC
#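 DiscoveRx PathHunter D2 beta-arrestin cells (2,100/well) attached overnight, then compound-stimulated 90 min at 37 C in HBSS/10 mM HEPES/0.1% Tween-20 buffer; beta-galactosidase complementation read by luminescence after 1 h at ambient temperature. Dopamine 57 uM final (EC100) as control.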
# PINK1 modulator: PINK1 expression modulation. PINK1 immunofluorescence, high-content cytometry, 24 h. Potency, µM (top dose mostly 76.6 µM), for the others: top-dose activation (PINK1 increase), most hits filed as activators. 410,000 tested, 0.2% active. AID 624263; active = well fitted activation curve with a large enough effect; inconclusive = small, poorly fitted or top-dose-only effect; inactive = flat fitted curve, though single readings scatter; cell line not stated here;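 also: potency is read from the fitted curve at half-maximal effect; % of control where 0% means no effect; nearly all actives have a fitted effect of over 65% in size; a mitochondrial uncoupler was the plate control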
#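 Decision-based qHTS: stable cells, 24 h exposure to five compound concentrations, CCCP as control. Fixed cells stained for PINK1 plus nuclear, mitochondrial and cell markers, cytometer read.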
# gsp agonist: activates gsp, the McCune-Albright syndrome mutation; gsp mutant cells, cAMP HTRF, 30 min; control for the full effect not named in the record; Potency, µM (doses to about 76.9 µM), inactives show at the top dose activation (cAMP increase), hits mostly activators; 340,000 tested, 0.13% active; AID 624287; active = well fitted activation curve with a large enough effect; inconclusive = small, poorly fitted or top-dose-only effect, or another doubt; inactive = no such curve, though single readings can be large or run the other way; cell line not stated here;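 also: phosphodiesterase inhibitor Ro 20-1724 added with compounds to block cAMP breakdown; potency is read from the fitted curve at half-maximal effect; nearly all actives have a fitted effect of over 60% in size; about a fifth of the inactives were tested at one dose only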
#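 Cells stably selected in G418 were plated at 2000/well, grown 16-24 hr, then given compounds in DMSO with the PDE inhibitor […] (300 uM solution added) for 30 min at 37C; cAMP was read by HTRF.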
# * = called active by the depositor; ? = inconclusive; / = no result given; [ ] = another dose, or the depositor's remark.
SMILES,Sfp inh,Menin-MLL FL inh,ClpP mod,gsp antagonist,D2 ag,PINK1 modulator,gsp agonist
N#Cc1ccc(/C=N/N=C(N)N)cc1,-3%,-0.2,0.2%,-3%,-3.3,-0.5%,9%
CNC(=O)Cc1csc2ccc(Cl)cc12,0%,-0.6,1.4%,-2%,-5.9,-0.3%,-7%
Nn1c(SCC(=O)Nc2cccnc2Cl)nnc1-c1ccccc1,/,/,-11%,-12%,-0.5,-1.0%,-1%
O=C(/C=C/c1ccccc1)n1cnnc1SC/C=C/c1ccccc1,?,6.4,0.8%,-11%,0.8,6.2%,2%[15.4 µM]
CCOc1ccccc1NC(=O)c1cc(S(=O)(=O)N2CCOCC2)ccc1C,-3%,/,-1.5%,6%,-1.8,0.6%,0%[15.4 µM]
CC1(C)CC(=O)c2cc(OCC(=O)O)ccc2O1,13%,-0.5,25µM*,3%,-1.2,-1.7%[38.3 µM],24%
Oc1cccc(/C=N/N2CCCCC2)c1O,-28%,-2.7,2.1%,0%,-4.1,4.4%,0%
CCc1noc(C)c1C(=O)NNC(=O)c1ccccc1Cl,/,/,-0.6%,-1%,-0.9,0.4%,-43%[inhibitor]
O=C(c1cc(COc2ccc(F)cc2Cl)on1)N1CCN(C2CCCC2)CC1,-10%,1.2,-5.9%,-1%,0.2,2.0%,-6%
COc1ccc(-c2ccc(C(=O)Nc3cccc(F)c3)c3occc23)c(C)c1,/,/,5.2%,/,2.8,5.2%,/
CCN1CCc2c(sc(NC(=S)NC(=O)c3ccc(Cl)cc3)c2C(N)=O)C1,16µM*,16,/,-18%,-9.7,?,11%[15.4 µM]
Cc1ccc(OCCC(=O)NNC(=O)c2cc(C)oc2C)cc1,/,/,-1.9%,4%,3.4,-1.9%,3%[15.4 µM]
CN(C)S(=O)(=O)N1CCc2ccc(NC(=O)c3ccccc3Cl)cc2C1,15%,3.3,/,-5%,11,0.5%,?
O=C(CSc1nc2ccccc2o1)Nc1ccccc1N1CCCCCC1,-7%,-1.1,-1.0%,-34%,-4.9,8.4%,5%
S=c1[nH]nc(COc2ccc3c(c2)OCO3)n1-c1ccccc1,40µM*,-0.5,0.6%,-8%,-2.4,0.0%,15%
O=C(CSc1nnc(-c2ccc(F)cc2)c2ccccc12)Nc1c(F)cccc1F,-22%,4.9,-0.8%,?,2.5,-0.6%,3%
COc1cccc(NC(=O)CSc2ccc3nnc(CCNC(=O)c4ccccc4)n3n2)c1,7%,-4.5,-4.4%,-14%,1.1,1.2%,?
COc1ccc(NS(=O)(=O)c2c(F)cc(F)c(Cl)c2F)cc1S(=O)(=O)N1CCCCC1,11%,6.3,-2.4%,-10%,2.2,-0.9%,12%
CCOC(=O)c1c(C)n(S(=O)(=O)c2ccc(C)cc2)c2ccc(O)c(C(=O)O)c12,-15%,5.3,/,-13%,-5.2,-2.2%,-19%
N#CC(C(=S)Nc1ccccc1)c1nc2ccccc2[nH]1 (stereo unspecified),-4%,-0.1,1.2%,-5%,-6.5,?,20%
CN(C)c1ccc(C=C2SC(=S)N(Cc3ccco3)C2=O)cc1,/,/,0.6%,/,-1.5,18%,?
COc1ccc(CC(=O)NC(C)c2nnc(SCC(=O)c3ccc(OC)cc3)n2C)cc1 (stereo unspecified),19%,-0.2,-1.4%,2%,-1.9,-0.9%,11%[15.4 µM]
Cc1ccc(C(=O)NC2CCCCC2)cc1,17%,2.7,-1.2%,6%,1.4,1.5%[38.3 µM],-24%
COc1ccc(CCNCC(O)COc2ccc(Cl)cc2)cc1OC (stereo unspecified),30%,-1.8,-1.6%,9%,-1.9,0.5%,-18%
N#Cc1cn(Cc2ccccc2)c2ccccc12,-12%,8.9,-2.1%,12%,-6.7,-0.1%,14%
CCOC(=O)C1CCCN(C(=O)c2cc(S(=O)(=O)N3CCCCC3)c[nH]2)C1 (stereo unspecified),13%,3.4,-1.6%,-3%,-5.4,-0.8%,?
Cc1ccc2c(CC(=O)NCC3COc4ccccc4O3)coc2c1 (stereo unspecified),1%,-0.1,?,6%,-3.0,0.2%,7%
COCC(=O)Nc1nc2n(n1)C(c1ccccc1Cl)CC(c1ccc(OC)cc1)N2 (stereo unspecified),16%,1.7,?,6%,0.0,2.9%[38.3 µM],41%
CNC(=O)C[C@H]1C(=O)N(CCc2ccccc2)C[C@@H]1Cc1ccccc1,/,/,1.6%,/,1.9,1.0%,2%
CC(=Cc1ccccc1)C(=O)c1ccccc1,/,/,-0.4%,/,-2.7,1.5%,-2%
O=C(/C=C/c1ccco1)c1ccc(NC(=O)C23CC4CC(CC(C4)C2)C3)cc1,3.5µM*,7.7,-0.6%,5%,0.9,1.1%,?
C=CCn1c(C)cc(-c2csc(NC(=O)C3=COCCO3)n2)c1C,/,/,-1.7%,8%,-0.6,0.2%,-49%
COc1ccc(NC(=O)C(C)Oc2ccc(/C(C)=N\O)cc2)cc1 (stereo unspecified),4%,2.2,0.4%,9%,-7.7,-1.2%,-2%
Cc1ccc2c(c1)c1ncn(Cc3ccc(F)cc3)c(=O)c1n2C,2%,1.8,3.7%,7%,-4.2,6.4%,0%
CCN(CC(=O)Nc1ccc2c(c1)OCCO2)C(=O)/C=C/c1ccc(OC)cc1OC,10%,-6.1,-12%,-25%,-6.1,-0.5%,-19%
CCOc1cc(/C=N/NC(=O)c2cccc(S(=O)(=O)N3CCOCC3)c2)ccc1OCC(=O)N(C)C,/,/,/,3%,-2.2,-3.7%,0%[15.4 µM]
CCOC(=O)c1sc2nc(CC(=O)OC)nc(N(C)CCc3ccccn3)c2c1C,21%,-3.8,/,-27%,5.4,-0.2%,9%[15.4 µM]
C/C(=N\NC(=O)c1n[nH]c2c1CCC2)c1ccco1,11%,-1.5,/,11%,-2.0,-0.8%,0%[15.4 µM]
CC(C)c1ccc(CNCCCSc2ncccn2)cc1,-21%,-9.0,-1.8%,8%,1.9,1.4%,-5%
COC(=O)C1CCN(c2cnccn2)CC1,6%,-5.5,/,7%,0.2,0.2%,-21%
CCOC(=O)c1ccc(NC(C)=O)c([N+](=O)[O-])c1,6%,-0.5,/,9%,5.3,0.7%,1%[15.4 µM]
CC(=O)Nc1ccc(NC(=O)C2CC(=O)N(C(C)C)C2)cc1 (stereo unspecified),26%,3.1,-10%,11%,-1.7,2.4%,1%[15.4 µM]
Cc1ccc(OCCN2CCC2(C)C(=O)NCc2cccc3ccccc23)cc1 (stereo unspecified),/,/,-6.3%,/,-6.4,21%,/
CC1=C(C)CC(C(=O)Nc2nc(C)cs2)C(C(=O)O)C1 (stereo unspecified),14%,-1.3,-1.4%,-5%,-1.7,1.2%,-16%
Cc1ccc(C2C(C(=O)c3cccs3)=C(O)C(=O)N2c2nnc(C)s2)cc1 (stereo unspecified),?,?,/,-8%,-1.9,-0.2%,3%[15.4 µM]
COc1ccc(N2CC(C(=O)Nc3nnc(Cc4ccccc4)s3)CC2=O)cc1 (stereo unspecified),2%,0.4,/,-11%,2.0,-1.5%,9%
COCCN(CCOC)C(=O)CCn1c(=O)oc2ccccc21,0%,2.8,2.4%,7%,-0.8,3.9%,25%
CCN1C(=O)[C@H]2[C@H]3CN=C(SCc4ccc(C(=O)OC)cc4)N3[C@@](Cc3ccccc3)(C(=O)OC)[C@H]2C1=O,/,/,1.1%,-8%,0.5,1.4%,/
CC(c1ccccn1)N(C)C(=O)c1ccc2nc(Cc3ccccc3F)oc2c1 (stereo unspecified),14%,/,-3.1%,1%,0.3,-0.5%,-15%[15.4 µM]
COc1ccc(C(=O)Nc2nnc(-c3ccccc3)o2)cc1OC,17%,-0.8,-2.0%,-13%,-2.3,-1.4%,-17%
# Other structures.
SMILES,Sfp inh,Menin-MLL FL inh,ClpP mod,gsp antagonist,D2 ag,PINK1 modulator,gsp agonist
CN(C)c1ccc(C2N3CC4(C)CN2CC(C)(C3)C4O)cc1 (stereo unspecified),-10%,-1.6,-0.8%,-1%,5.7,2.3%,-32%[inhibitor]
COc1ccccc1N1CCN(C2CCCN(C(=O)CC(F)(F)F)C2)CC1 (stereo unspecified),16%,0.4,-1.8%,-7%,-5.1,-0.2%,-1%
C=CCn1c2ccccc2c2nnc(SCC(=O)OCN3C(=O)c4ccccc4C3=O)nc21,-8%,5.7,?,-8%,-1.7,0.0%,15%
Cc1cccc(Cl)c1NC(=O)N1CCN(c2ccnc3cc(Cl)ccc23)CC1,6%,1.1,-11%,28µM*,0.3,0.5%,23%
CCN(c1ccccc1)S(=O)(=O)c1ccc(C(=O)NC2CCN(Cc3ccccc3)CC2)cc1,/,/,1.2%,-2%,-0.5,-1.3%,1%
COc1ccc(C2NC(c3ccc(OC)c(OC)c3OC)C(C)C(=O)C2C)c(OC)c1OC (stereo unspecified),-1%,5.4,-1.4%,7%,-2.1,0.9%,3%
CCOc1ccccc1N1CCN(S(=O)(=O)c2ccc3c4c(cccc24)C(=O)N3)CC1,-1%,-2.4,-2.7%,-3%,1.8,-0.7%,1%
O=C(/C=C/c1cccc([N+](=O)[O-])c1)NCCSCc1ccc(Cl)cc1,2%,7.2,0.1%,?,-2.9,-0.4%,4%
COC(=O)C(c1ccccc1)C1(O)CC(C)N(C)CC1C (stereo unspecified),19%,0.3,102%,8%,8.8,0.7%,-24%[15.4 µM]
CCC(C)NC(=O)C1CCCN(S(=O)(=O)c2ccc3c(c2)CC(C)N3C(=O)C2CC2)C1 (stereo unspecified),4%,4.6,-1.3%,3%,-0.4,1.9%,27%
c1ccc(CNc2nc(NCc3ccccc3)c3sccc3n2)cc1,/,/,-1.3%,/,-3.3,?,/
CCOCCCn1c(=S)[nH]c2cc(C(=O)N3CCN(C)CC3)ccc2c1=O,-25%,-1.0,0.1%,6%,1.0,-2.8%,-12%
CCn1c(CSc2nc(C)cs2)nc2cc(S(=O)(=O)N(C)C)ccc21,4%,-0.9,-9.6%,-9%,2.8,4.5%,4%

# gsp antagonist, entries above that show a hit
molecule,Sfp inh,Menin-MLL FL inh,gsp antagonist,D2 ag,PINK1 modulator,gsp agonist
Cc1cccc(Cl)c1NC(=O)N1CCN(c2ccnc3cc(Cl)ccc23)CC1,6%,1.1,28µM*,0.3,0.5%,23%

# Screening results as filed in PubChem BioAssay.

# Hits appear at their usual frequency; 5.1% or so of the library scored in one or more.
